# Compound activity from PubChem.
# T cruzi inh: T. cruzi replication inhibition; T. cruzi beta-gal in NIH3T3, luminescence, 90 h; inhibition, % (no concentration beside the values); 300,000 tested, 1.4% active;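 active = mean inhibition across valid replicates above about 55%, limit read from the data; inconclusive = mean below that limit but half or more replicates reach it; inactive = mean below it, under half of replicates reach it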;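 note: signal also drops with host cell toxicity which is not excluded here; 0% = plate median of DMSO wells and 100% = zero luminescence signal; higher percent means less beta-gal luminescence so fewer parasites; stock transfer was 50 nL into about 50 µL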
# rRNA inh HTS: inhibits bacterial ribosomal RNA function over humanized ribosomes | E. coli WT GFP vs humanized-ribosome RFP mutants, fluorescence, 24 h; hits give low values; DMSO median 0, no signal -100 | GFP signal change (wild-type ribosome), % (no concentration beside the values) | 350,000 tested, 1.6% active | AID 720706;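 active = significant combined selectivity score with lowered wild-type GFP, culture density cut under 30%, mutant RFP and density less affected; inactive = any of these conditions unmet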; note: one replicate is shown; some compounds called inactive have numbers as strong as hits
# MLL AF4-AF9 inh: blocks AF4 peptide binding to human AF9 | P42568 | AlphaScreen, biotin-AF4 peptide binding to FLAG-AF9 | inhibition, % at 10 µM | 350,000 tested, 0.47% active;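 active = every replicate reaching a set inhibition limit, whatever the replicate mean, cut at about 25% in these data; inconclusive = mean inhibition reaches that limit but some replicates miss it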;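 note: 0% = plate neutral control median and 100% = total signal loss; the record names both 10 and 1 µM as test concentration; the first replicate is given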
# Target sequence (P42568 whole entry, looked up): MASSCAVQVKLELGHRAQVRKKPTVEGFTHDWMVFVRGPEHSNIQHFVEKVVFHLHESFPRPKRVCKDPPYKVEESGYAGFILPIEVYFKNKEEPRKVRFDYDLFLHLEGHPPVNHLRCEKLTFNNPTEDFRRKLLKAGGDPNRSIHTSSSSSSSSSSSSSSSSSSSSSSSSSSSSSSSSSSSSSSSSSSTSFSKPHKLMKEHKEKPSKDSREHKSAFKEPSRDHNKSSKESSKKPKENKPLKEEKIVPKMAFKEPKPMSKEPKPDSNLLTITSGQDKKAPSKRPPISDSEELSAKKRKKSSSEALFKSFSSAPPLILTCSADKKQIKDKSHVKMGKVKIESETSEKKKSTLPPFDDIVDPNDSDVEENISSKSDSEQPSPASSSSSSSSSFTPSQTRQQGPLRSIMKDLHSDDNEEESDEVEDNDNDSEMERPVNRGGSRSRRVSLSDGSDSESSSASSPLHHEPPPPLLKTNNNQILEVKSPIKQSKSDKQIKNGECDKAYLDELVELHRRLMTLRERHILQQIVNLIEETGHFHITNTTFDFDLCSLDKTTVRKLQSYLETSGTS
# RanGTP-Impb inh: inhibitors of RanGTP-importin-beta interaction, primary screen, biochemical, FRET, CFP-Ran, YFP-importin-beta, homogeneous. AID 2216. 300,000 tested, 1.1% active. inhibition, % (concentration not given with the values). cell-free CFP-Ran/YFP-importin-beta FRET ratio;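 active = most replicates above 15%; inconclusive = exactly half above 15%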;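 note: 0% = DMSO wells and 100% = Ran loaded with GDP instead of GTP; wells of about 40 µL received 100 nL stock; the first replicate is given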
# Bfl-1 A1 inh: inhibitors of the anti-apoptotic protein A1, read as caspase activation; MEF A1-2A-BIM cells, Caspase-Glo 3/7 luminescence, 3 h; percent of clofoctol response, vehicle zero; caspase activation, % (no concentration beside the values); AID 2462; 330,000 tested, 0.066% active;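 active = over half of replicate activation scores above 10%, or exactly half above 10 with the replicate mean above 10; inconclusive = replicate mean below 10 yet half the replicates above 10; inactive = over half of replicates below 10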;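 note: wells of about 30 µL received 50 nL stock; many hits fall short of the cut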
# Vif TR-FRET: inhibitors of Vif binding to APOBEC3G peptide, primary screen, biochemical, TR-FRET, GST-Vif 1-94, biotin-A3G peptide, dose response retest (AID 1117319). TR-FRET GST-Vif / biotin-A3G peptide binding; higher % means a stronger effect; test concentration not given here; strong numbers were not always called active. inhibition, %; hits with a dose series show IC50 in µM. 260,000 tested, 0.57% active;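 active = above the screen mean plus three standard deviations and confirmed in dose response; inconclusive = results disagree or hit not tested in dose response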;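 note: Vif residues 1-94 fused to GST binding biotinylated APOBEC3G peptide 110-148; 0% = full assay without inhibitor and 100% = GST in place of GST-Vif; retest series ran down from 100 µM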
# Beta cell apopt: blocks beta cell apoptosis | 300,000 tested, 0.8% active | INS-1E cytokine-induced death, ATP luminescence, 48 h; percent of positive-control rescue, neutral wells zero | protection from apoptosis, % (test concentration not listed) | AID 435005;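 active = all replicates at 75% or more, or half of them and the mean; inconclusive = half reach 75% but not the mean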;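 note: 0% = cytokine-treated negative control wells and 100% = positive control rescue; higher means more ATP so stronger rescue from cytokine killing; wells of about 40 µL received 100 nL stock; the first replicate is given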
# Calb FLC: C. albicans growth modulation with fluconazole; C. albicans CaCi-2 (fluconazole-resistant clinical isolate) + fluconazole, Alamar Blue growth, 48 h; growth inhibition, % (concentration not given with the values); 300,000 tested, 0.57% active;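 active = most replicates above 75%; inconclusive = exactly half above 75%; inactive = most below 75%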;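 note: all wells also contain fluconazole at 8 µg/ml as a sub-toxic cotreatment; 0% = median of DMSO wells and 100% = median of geldanamycin control wells; wells of about 8 µL received 7.5 nL stock; the first replicate is given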
# rRNA inh HTS OD600: further read-out of rRNA inh HTS, marked with its call; OD600 change, %; measured here: OD600 growth;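 optical density of the mix in the first replicate; 0 = DMSO median and -100 = no signal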
# rRNA inh HTS RFP: recorded beside rRNA inh HTS, whose call it bears; RFP signal change, %; measured here: RFP humanized mutant strains;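 first replicate; 0 = DMSO median and -100 = no signal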
# An asterisk follows results filed as active; ? = inconclusive; / = no result given; & = joins results of further samples.
molecule,T cruzi inh,rRNA inh HTS,rRNA inh HTS OD600,rRNA inh HTS RFP,MLL AF4-AF9 inh,RanGTP-Impb inh,Bfl-1 A1 inh,Vif TR-FRET,Beta cell apopt,Calb FLC
COc1ccc(NS(=O)(=O)c2cc(NC(=O)c3ccc(=O)[nH]n3)ccc2N2CCOCC2)cc1,/,-27*,-15*,-0.9*,4.3,/,1.0,-4%,3,/
O=C1c2cccnc2C(=O)N1Cc1ccc(Cl)cc1,-7,/,/,/,/,-0.8,0.2,4%,2,-13
O=C(NCCc1ccccc1)c1ccc(-c2ccccc2Cl)o1,-3,-34,-58,-5.1,/,0.1,0.2,5%,4,12
COc1ccccc1C(=O)n1nc(-c2ccco2)nc1N,-4,/,/,/,/,?,-0.3,25%,-8,1
Cc1ccc(Cn2ncc3c(N4CCCC4)ncnc32)cc1,-6,/,/,/,/,1.9,0.2,-9%,-4,-3
COc1ccc(NC(=O)COC(=O)c2cc(=O)c3ccccc3o2)cc1OC,/,6,5,-2.2,-2.9,/,2.0,1%,1,/
CN(Cc1ccccc1)S(=O)(=O)c1nnc(NC(=O)c2ccccc2)s1,0,-3,3,-2.0,-4.5,1.8,-2.0,/,16,-1
COc1ccc(CCNC(=O)CSc2nnc(-c3cccc(F)c3)o2)cc1OC,-10,4,4,-2.8,0.5,-3.1,0.6,4%,/,4
COc1ccccc1NC(=O)Cn1cc(C(=O)c2ccco2)c2ccccc21,-14,-26*,-14*,1.1*,-1.4,1.4,-0.4,/,87*,-2
COc1ccc(CNC(=O)C2CCNCC2)cc1,1,/,/,/,/,-3.0,1.6,3%,-4,0
c1ccc(Cn2nnc3c(N4CCc5ccccc5C4)ncnc32)cc1,-1,/,/,/,/,0.2,-0.3,-7%&-10%,-11,-6
O=C(CCN1C(=O)C2CCCCC2C1=O)Nc1cc([N+](=O)[O-])ccc1Cl (stereo unspecified),/,-1,10,-2.0,-1.1,/,0.2,?,4,/
Cc1nnc(SCC(=O)NCCN2C(=O)CSC2=O)s1,-8,/,/,/,/,2.0,-0.4,10%,-7,11
COc1ccc(Nc2nc(C)cc(C)c2C(N)=O)cc1OC,-7,-8,-13,1.5,-2.0,-2.8,-0.3,?,-8,5
CCOC(=O)c1c(C)[nH]c(C)c1-c1ccccc1OC,-11,/,/,/,/,?,0.7,?,-4,-7
COc1ccc(/C=N/NC(=O)CCc2c(C)n[nH]c2C)cc1O,-10,/,/,/,/,-3.1,1.1,7%,-2,-8
COCc1ccccc1C1=CC(=O)C[C@H](c2ccc(OC)cc2)C1,/,-34,-42,-7.7,-31,/,-0.5,/,-1,/
Cn1cccc1Cc1nnc(SCC(=O)N2CCN(c3ccccc3)CC2)n1-c1ccc(F)cc1,11,/,/,/,/,3.2,-0.3,3%&-7%,5,5
COc1ccc(OC)c(/C=C/C(=O)OCC(=O)NCc2ccco2)c1,/,-3,-12,-1.7,1.3,/,-0.4,1%,-3,/
Clc1ccc(OCCn2cnc(Cl)c2Cl)cc1,12,-4,-2,1.1,7.7,5.5,-0.5,23%,0,2
CC1(C)CC(N(Cc2ccccc2)C(=O)Cc2ccccc2)CCO1 (stereo unspecified),-1,1,1,-1.0,-1.3,0.6,-0.2,2%,-4,-6
COC(C[C@H]1O[C@H]1[C@@H](O)[C@H](C)OCc1ccccc1)OC,0,12,14,-8.8,4.9,5.6,/,-4%,/,3
COc1ccccc1C(CC(=O)Nc1nccs1)c1ccco1 (stereo unspecified),23,/,/,/,/,-2.5,-0.2,-1%,-4,/
CC1(C)Cc2cccc(OCC(=O)Nc3cccnc3Cl)c2O1,5,/,/,/,/,-3.0,0.6,3%,2,-3
COc1ccc(OC)c(S(=O)(=O)N2CCC(C(=O)NCc3ccc4c(c3)OCO4)CC2)c1,-1,-5,-7,1.4,-1.0,1.0,-1.4,/,-2,1
Cn1c(=O)n(-c2cccc(Cl)c2)c(=O)c2c3c(sc21)COC(C)(C)C3,-12,/,/,/,/,0.9,-0.1,-1%,-1,10
CSc1ncccc1C(=O)OCC(=O)c1[nH]c(C)c(C(C)=O)c1C,/,0,5,0.7,-2.8,/,-1.0,/,1,/
Cc1csc(SCC(=O)NC2CCCCC2)n1,-11,/,/,/,/,5.3,0.0,?,-13,-1
CCCCn1c(SCC(=O)NC(=O)NCc2ccco2)nc2cc(S(N)(=O)=O)ccc21,27,/,/,/,/,-0.5,0.2,?,0,22
Cc1cccc2cc(=O)[nH]c(C)c12,-15,/,/,/,/,-1.8,-1.1,5%,-8,-1

molecule,T cruzi inh,rRNA inh HTS,rRNA inh HTS OD600,rRNA inh HTS RFP,MLL AF4-AF9 inh,RanGTP-Impb inh,Bfl-1 A1 inh,Vif TR-FRET,Beta cell apopt,Calb FLC
COc1ccccc1/C=N/NC(=O)c1sc(C)nc1C,-27,14,15,1.3,2.1,4.3,0.0,/,-9,-5
O=C1CSC(c2ccc(Cl)cc2)N1c1cccnc1 (stereo unspecified),8,9,-1,-1.6,-0.1,-0.5,0.2,3%,-12,-7
CN1CCN(C(=S)SCC(=O)Nc2nc(-c3ccccc3)c(-c3ccccc3)o2)CC1,-4,/,/,/,/,2.8,0.7,23%,-1,39
CCC1CCCCN1CCCNC(=O)Cn1c(=O)c2cccn2c2cccnc21 (stereo unspecified),-6,7,14,1.3,1.2,4.9,2.6,/,-3,-22
O=C(Nc1cccc(Br)c1)C1CCCC1,5,-13,-4,-0.7,-13,-0.8,0.0,/,-7,-18
C#CCNC(=O)C1=C[C@H](c2ccccc2)C[C@H](OCCCCO)O1,1,4,2,-0.1,-4.1,-2.2,0.9,8%,-3,-14
Cc1ccc(-n2nnnc2Sc2ccc(S(=O)(=O)NCCN(C)C)cc2[N+](=O)[O-])cc1,38,/,/,/,7.7,1.1,-0.8,?,9,3
CC1CCCCC1N=CC1=C(O)CC(C)(C)CC1=O (stereo unspecified),-3,/,/,/,/,1.1,-0.4,-2%,-3,-1
Cc1ccc(CNC(=O)C(NS(=O)(=O)c2cccc3nsnc23)C(C)C)cc1 (stereo unspecified),-2,4,7,-0.8,-1.5,3.0,/,/,/,1
Cc1ccc(C(=O)CC(=O)c2cccc(F)c2)c(O)c1,7,/,/,/,/,1.7,-1.1,2%,12,-6
COc1ccccc1Nc1nnc(SCC(=O)N2CCCC2=O)s1,4,3,-4,2.5,-5.9,-3.1,-4.7,-1%,5,-3
O=C(COC(=O)c1ccc(F)c(S(=O)(=O)N2CCOCC2)c1)c1ccccc1,/,-1,-4,0.5,-1.3,/,0.5,/,1,/
O=C(CNS(=O)(=O)c1ccccc1)Nc1ccc(C(F)(F)F)cc1,-10,/,/,/,/,0.8,0.4,8%,-1,15
CC(C)=CCN1CCN(Cc2cccc3nonc23)CC1CCO (stereo unspecified),-4,7,9,3.9,-6.3,-3.3,0.4,8%,-3,-6
O=[N+]([O-])c1ccc(Cl)c(-c2ccc(/C=N/n3cnnc3)o2)c1,-14,1,7,-4.4,-14,-1.7,1.4,10%,3,17
CCN(CC)C1=NC=CC(c2ccccc2)=CC1C (stereo unspecified),-11,2,12,-4.3,13,-1.5,0.1,-9%,-2,3
O=C(COC(=O)/C=C/c1ccc(Cl)cc1)NCCN1C(=O)CSC1=O,-4,13,12,5.2,-0.7,-4.0,-1.1,5%,-3,5
O=C(NCC(c1ccc(F)cc1)N1CCOCC1)c1cccnc1Sc1ccc(Cl)cc1 (stereo unspecified),-10,-4,-21,-3.1,-1.2,/,0.1,3%,-5,0
Cc1ccn2c(=O)c(C(=O)NCCC3=CCCCC3)c(O)nc2c1,1,-1,1,-0.5,1.5,2.7,2.1,/,-3,2
CC(C)(C)c1ccc(OCCC(=O)NCCc2ccc(S(N)(=O)=O)cc2)cc1,1,/,/,/,-1.1,-2.5,-0.7,/,-3,14
O=C(NCCc1ccccc1)c1nc2nc(-c3cccs3)cc(C(F)(F)F)n2n1,13,/,/,/,/,5.6,-0.2,-35%,2,8
CCN(CC)S(=O)(=O)c1ccc(C(=O)OCCNC(=O)c2cccnc2)cc1,15,/,/,/,/,-4.8,2.0,12%,-2,-8
Cn1nc([N+](=O)[O-])nc1Oc1ccc2ccccc2c1,47,/,/,/,/,0.9,0.3,-7%,-14,9
COCCNC(=O)C(=O)c1c(-c2ccccc2)[nH]c2ccccc12,-6,1,-3,0.1,-4.0,-2.8,0.2,-1%,-3,2
COC(=O)[C@@]12CCCCN1[C@H](c1ccc(-c3ccc4c(c3)OCO4)c(OC)c1)[C@@H]1C(=O)N(C)C(=O)[C@@H]12,/,10,6,0.3,5.9,/,0.8,/,-10,/
COc1ccc2c(c1)SCC/C2=C\CN1C(=O)CCC1=O,8,-3,-8,-7.2,2.3,3.1,0.5,/,-10,-9
O=C(COC(=O)c1ccccc1NCCO)NCCC1=CCCCC1,-4,-7,-10,-2.5,-12,8.0,-0.5,6%,-1,-2
N#CCc1c(C#N)c(N)nc(N2CCN(c3ccc(F)cc3)CC2)c1C#N,24,/,/,/,/,-6.8,-0.3,30%,8,9
O=C(Nc1cccnc1)c1cnc2ccccc2n1,-3,/,/,/,/,-0.9,-3.3,16%,-4,12
CCOC(=O)c1c(C)[nH]c(C(=O)CSc2nnc(C3CC3)n2N)c1C,3,/,/,/,/,?,-1.0,3%,4,-4

molecule,T cruzi inh,rRNA inh HTS,rRNA inh HTS OD600,rRNA inh HTS RFP,MLL AF4-AF9 inh,RanGTP-Impb inh,Bfl-1 A1 inh,Vif TR-FRET,Beta cell apopt,Calb FLC
CCOc1ccc(CCNC(=O)CN2C(=O)NC3(CCCCCC3)C2=O)cc1OCC,/,/,/,/,-1.7,/,0.5,-10%,-4,/
O=c1cc(-c2ccccc2Cl)oc2cccc(O)c12,-16,12,14,1.2,4.4,-1.2,0.2,/,1,6
CCN1CCN(S(=O)(=O)c2ccc(OC)c(Br)c2)CC1,-22,/,/,/,/,-5.9,-0.7,-4%,-12,10
Cc1cc(OCc2cc(C(=O)N(Cc3nccn3C)C(C)C)no2)cc(C)c1Cl,-16,-51,-75,-9.9,6.6,-1.8,-0.8,/,-10,0
CCCCNCC1C(Oc2ccc(Cl)cc2)C(=O)N1c1ccccc1C (stereo unspecified),43,-9,-13,3.4,1.5,0.6,0.3,-8%,22,-78
O=C(Nc1cccnc1)c1ccc(Br)c(S(=O)(=O)N2CCCC2)c1,-12,-5,1,-1.0,-1.8,-0.8,0.4,/,-1,-6

# Only part of the results is shown. The share of hits here may be higher or lower than overall.
